# Menin-MLL FL inh: qHTS Assay for Inhibitors Targeting the Menin-MLL Interaction in MLL Related Leukemias: Competition With Fluorescein Labeled MLL-derived Peptide; 290,000 tested, under 10 active; Fluorescence polarization, fluorescein-MLL peptide displacement from menin; FP activity change, % at 61.4 µM; inconclusive = falling polarisation curve, or a change in total fluorescence; inactive = total fluorescence flat and polarisation flat or rising; no compound was filed as active; the % refers to the polarisation; negative = inhibition;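 note: % of control where 0% means no effect; inhibitors lower the polarisation; unlabelled MLL peptide was the positive control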
# gsp ag: qHTS for Agonist of gsp, the Etiologic Mutation Responsible for Fibrous Dysplasia/McCune-Albright Syndrome: qHTS; gsp mutant cells, cAMP HTRF, 30 min; control for the full effect not named in the record; Potency, µM (highest dose often 76.9 µM), without a hit: top-dose activation (cAMP increase), hits mostly activators; 340,000 compounds, 0.13% hits; AID 624287, 2012; active = well fitted activation curve with a large enough effect; inconclusive = small, poorly fitted or top-dose-only effect, or another doubt; inactive = no such curve, though single readings can be large or run the other way; cell line not stated here;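 note: phosphodiesterase inhibitor Ro 20-1724 added with compounds to block cAMP breakdown; potency is the fitted concentration of half-maximal effect; nearly all actives have a fitted effect of over 60% in size; about a fifth of the inactives were tested at one dose only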
#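 Cells in DMEM/10% FBS with G418 were pretreated with compounds in DMSO plus […] (300 uM stock) for 30 min at 37C. cAMP was measured by HTRF (cAMP-d2 plus anti-cAMP antibody-K) after 30 min at room temperature.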
# Sfp inh: qHTS Assay for Inhibitors of Bacillus subtilis Sfp phosphopantetheinyl transferase (PPTase); 4'-phosphopantetheinyl transferase ffp (Bacillus subtilis), Q9F4F7; Biochemical Sfp PPTase activity, qHTS; Potency, µM, for the others: max response, negative = inhibition, hits mostly inhibitors; 310,000 compounds, 3.5% hits; active = well fitted inhibition curve with a large enough effect; inconclusive = small, poorly fitted or top-dose-only effect, or another doubt; inactive = no such curve, though single readings can be large or run the other way;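 note: the enzyme is Sfp with the accession as filed and its product quenches rhodamine fluorescence; potency is the fitted concentration of half-maximal effect; 0% = enzyme reaction without inhibitor and -100% = no enzyme wells; top concentration of the series not given in the record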
#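 Buffer: 50 mM Hepes-Na pH 7.6, 10 mM MgCl2, 0.01% Nonidet P-40, 0.01% BSA. Enzyme 15 nM, pre-exposed to compound 15 min; substrates then added and fluorescence change tracked over 30 min.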
# gsp antagonist: qHTS for Antagonists of gsp, the Etiologic Mutation Responsible for Fibrous Dysplasia/McCune-Albright Syndrome: qHTS. Potency, µM (highest dose often 76.9 µM), for inactives: at the top dose activity change, negative = inhibition, most hits filed as inhibitors. gsp-mutant cells, cAMP HTRF, 30 min; control for the full effect not named in the record. 340,000 compounds, 0.4% hits. AID 624288, 2012; active = falling curve of any shape with a large fitted effect; inconclusive = falling curve, mostly with a smaller effect; inactive = flat or rising curve; cell line not stated here;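 note: intracellular cAMP measured with PDE inhibitor Ro 20-1724 present during compound exposure; potency is the fitted concentration of half-maximal effect; % is set by controls: 0 for no effect and ±100 for the full control effect; nearly all actives have a fitted effect of over 65% in size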
#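 HTRF cAMP read-out (cAMP-d2 plus anti-cAMP antibody-K in lysis buffer, 30 min RT). Before lysis, cells are exposed to compounds with […] for 30 min at 37C in DPBS containing Ca/Mg, BSA and Tween 20.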
# D2 PAM: Beta-Arrestin HTS for Positive Allosteric Modulators of the Human D2 Dopamine Receptor: Potentiators. DiscoveRx D2 beta-arrestin cells, luminescence, 90 min; 100% = 57 uM dopamine signal. potentiation, % (test concentration not listed). 360,000 compounds, 0.23% hits. AID 624464, 2012; active = potentiation of 50% or more; inconclusive = 30% to 50%; inactive = 30% or less;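 note: compound concentration not given in the record; tested on top of an EC20 dose of dopamine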
# Target sequence (P14416 whole entry, looked up): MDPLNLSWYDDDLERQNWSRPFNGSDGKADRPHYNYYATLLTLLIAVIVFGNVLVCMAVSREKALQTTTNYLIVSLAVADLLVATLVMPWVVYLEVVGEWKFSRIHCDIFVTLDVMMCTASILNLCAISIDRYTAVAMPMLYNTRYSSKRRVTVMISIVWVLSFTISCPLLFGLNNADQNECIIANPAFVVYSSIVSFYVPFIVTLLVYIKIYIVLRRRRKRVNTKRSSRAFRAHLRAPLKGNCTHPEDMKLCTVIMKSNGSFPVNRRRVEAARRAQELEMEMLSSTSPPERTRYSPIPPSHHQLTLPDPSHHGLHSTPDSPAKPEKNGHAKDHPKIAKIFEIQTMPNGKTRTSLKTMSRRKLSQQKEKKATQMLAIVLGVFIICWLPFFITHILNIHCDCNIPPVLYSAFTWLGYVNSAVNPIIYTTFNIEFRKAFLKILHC
#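 PathHunter D2 cells, attached overnight at 37 deg C, received compound in DMSO plus dopamine at EC20 (50 nM final) for 90 min at 37 deg C. Beta-arrestin recruitment was read as luminescence after 1 h with detection reagent at ambient temperature.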
# TRPV1 PAM: HTS Assay for Compounds that Act as Potentiators of the Vanilloid Receptor 1. 320,000 compounds, 0.02% hits. TRPV1-expressing cells, Fluo-8 calcium influx, capsaicin EC20 potentiation; host cell line not named in the record; control for the full effect not named in the record. Transient receptor potential cation channel subfamily V member 1 (Homo sapiens), Q8NER1. potentiation, % at 8.33 µM; active means potentiation above 80%; inconclusive means 30% to 80%; inactive means below 30%; note: 0% is about no effect
#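 Cells expressing TRPV1 were dye-loaded with Fluo-8 and read kinetically: 10 s baseline, 3 min after compound (agonist portion), then 2 min after EC20 capsaicin (allosteric enhancer portion). Calcium-bound dye fluorescence at 480/520 nm.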
# ClpP mod: qHTS Assay for Activators of ClpP; purified B. subtilis ClpP, FRET peptide cleavage, 20 min; 340,000 compounds, 1.9% hits; Potency, µM (highest dose often 57.5 µM), without a hit: at the highest dose activity change, negative = active; ATP-dependent Clp protease proteolytic subunit (Bacillus subtilis (strain 168)), P80244; active = well fitted falling curve with a large enough effect; inconclusive = small, poorly fitted or top-dose-only effect; inactive = no such curve, though single readings can be large or run the other way; note: potency is the fitted concentration of half-maximal effect; the source files actives as falling curves though it sought activators and does not explain the sign; nearly all actives have a fitted effect of over 65% in size; many hits overshoot -100%
# Target sequence (P80244 whole entry, looked up): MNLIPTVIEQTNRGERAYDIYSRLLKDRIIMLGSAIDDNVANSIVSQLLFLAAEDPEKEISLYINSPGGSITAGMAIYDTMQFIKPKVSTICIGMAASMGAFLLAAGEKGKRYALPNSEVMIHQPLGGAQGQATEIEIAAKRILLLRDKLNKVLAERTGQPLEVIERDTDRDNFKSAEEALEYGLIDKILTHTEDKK
#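 ClpP 10 microg/mL final, pH 8 Tris/KCl buffer with BSA, glycerol, Tween-20; compound pinned in; FRET-FV substrate; RT 20 min; Ex320/Em430; ΔFRET vs ADEP 5.8 microM, DMSO, no enzyme.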
# Starred values were filed as active, the others as inactive; ? = inconclusive; . = no result given; & = joins results of further samples; [ ] = another dose, or the depositor's remark.
# Abbreviations – A = Menin-MLL FL inh; B = gsp ag; C = Sfp inh; D = gsp antagonist; E = D2 PAM; F = TRPV1 PAM; G = ClpP mod
Cc1[nH]n(-c2ccccc2)c(=O)c1N=Nc1ccccc1
  A: -7.1	B: -19%[15.4 µM]	C: 16%	D: -6%	E: -2	F: -6	G: .

Cc1ccc(CC(=O)Nc2cc(C)ccn2)cc1
  A: 4.5	B: -8%	C: 7%	D: 10%	E: -2	F: -2	G: -4.9%

COc1ccccc1CNC(=O)Cc1cc(=O)[nH]c(=O)[nH]1
  A: 0.9	B: 49%	C: 15%	D: -12%	E: -2	F: -1	G: -1.9%

COc1ccc(C(=O)Nc2cccc(/C(C)=N/NC(=O)c3ccc([N+](=O)[O-])c(C)c3)c2)cc1OC
  A: -1.6	B: -39%	C: 19%	D: -20%	E: -4	F: -1	G: -4.7%

COc1ccc(S(=O)(=O)N2c3ccccc3OCC2C(C)(C)C)cc1 (stereo unspecified)
  A: -3.3	B: ?	C: 6%	D: 12%	E: -3	F: -13	G: .

CCN(CC)c1ccc2cc(C(=O)Nc3ccccn3)c(=O)oc2c1
  A: ?	B: 3%	C: -7%	D: 16%	E: 0	F: -9	G: -5.7%&-6.1%

CCc1nc(SCc2cccnc2)c(C#N)cc1C
  A: -0.3	B: ?	C: -2%	D: -24%	E: -6	F: -12	G: -1.8%

Cc1cc(C)c2nc(N3CCCN(C(=O)c4cnccn4)CC3)c(C#N)cc2c1
  A: -0.7	B: ?	C: -6%	D: 6%	E: 4	F: -3	G: -6.4%

CN(Cc1cnc2nc(N)nc(N)c2n1)c1ccc(C(=O)NC(CCC(=O)O)C(=O)O)cc1C(F)(F)F (stereo unspecified)
  A: .	B: 19%	C: .	D: -10%	E: -16	F: .	G: ?

O=C(NC1CCCc2ccccc21)c1ccccc1Cl (stereo unspecified)
  A: 1.3	B: -1%[15.4 µM]	C: 13%	D: 17%	E: -10	F: 10	G: -1.1%

Cc1cc(C)n(-c2ccccc2C#N)n1
  A: -0.2	B: 7%[15.4 µM]	C: 9%	D: 11%	E: -4	F: ?	G: .

O=C(c1ccc2c(=O)n3c(nc2c1)CCCCC3)N1CCN(c2ccc(F)cc2)CC1
  A: 6.2	B: 6%[15.4 µM]	C: ?	D: 5%	E: 2	F: .	G: .

O=C(Oc1cccc(Br)c1)c1cccnc1
  A: 1.2	B: 0%	C: 2%	D: 7%	E: -5	F: -22	G: ?

O=C(O)c1cccc(Cn2c(Cl)c(/C=N/NC(=O)c3ccccc3)sc2=O)c1
  A: 11	B: -6%	C: 12%	D: 2%	E: -3	F: -7	G: -9.0%

O=c1c(F)cn(C2CCCO2)c(=O)n1Cc1c(F)cccc1Cl (stereo unspecified)
  A: -1.2	B: 22%	C: -2%	D: 4%	E: -5	F: -6	G: -1.7%

# An excerpt of these results, with bars between the fields:
Compound | Menin-MLL FL inh | gsp ag | Sfp inh | gsp antagonist | D2 PAM | TRPV1 PAM | ClpP mod
COc1ccccc1CNC(=O)Cc1cc(=O)[nH]c(=O)[nH]1 | 0.9 | 49% | 15% | -12% | -2 | -1 | -1.9%
COc1ccc(C(=O)Nc2cccc(/C(C)=N/NC(=O)c3ccc([N+](=O)[O-])c(C)c3)c2)cc1OC | -1.6 | -39% | 19% | -20% | -4 | -1 | -4.7%
COc1ccc(S(=O)(=O)N2c3ccccc3OCC2C(C)(C)C)cc1 (stereo unspecified) | -3.3 | ? | 6% | 12% | -3 | -13 | .
CCN(CC)c1ccc2cc(C(=O)Nc3ccccn3)c(=O)oc2c1 | ? | 3% | -7% | 16% | 0 | -9 | -5.7%&-6.1%
CCc1nc(SCc2cccnc2)c(C#N)cc1C | -0.3 | ? | -2% | -24% | -6 | -12 | -1.8%
Cc1cc(C)c2nc(N3CCCN(C(=O)c4cnccn4)CC3)c(C#N)cc2c1 | -0.7 | ? | -6% | 6% | 4 | -3 | -6.4%
CN(Cc1cnc2nc(N)nc(N)c2n1)c1ccc(C(=O)NC(CCC(=O)O)C(=O)O)cc1C(F)(F)F (stereo unspecified) | . | 19% | . | -10% | -16 | . | ?
O=C(NC1CCCc2ccccc21)c1ccccc1Cl (stereo unspecified) | 1.3 | -1%[15.4 µM] | 13% | 17% | -10 | 10 | -1.1%
Cc1cc(C)n(-c2ccccc2C#N)n1 | -0.2 | 7%[15.4 µM] | 9% | 11% | -4 | ? | .
O=C(c1ccc2c(=O)n3c(nc2c1)CCCCC3)N1CCN(c2ccc(F)cc2)CC1 | 6.2 | 6%[15.4 µM] | ? | 5% | 2 | . | .
O=C(Oc1cccc(Br)c1)c1cccnc1 | 1.2 | 0% | 2% | 7% | -5 | -22 | ?
O=C(O)c1cccc(Cn2c(Cl)c(/C=N/NC(=O)c3ccccc3)sc2=O)c1 | 11 | -6% | 12% | 2% | -3 | -7 | -9.0%
O=c1c(F)cn(C2CCCO2)c(=O)n1Cc1c(F)cccc1Cl (stereo unspecified) | -1.2 | 22% | -2% | 4% | -5 | -6 | -1.7%

# New compounds follow.
# Abbreviations – A = Menin-MLL FL inh; B = gsp ag; C = Sfp inh; D = gsp antagonist; E = D2 PAM; F = TRPV1 PAM; G = ClpP mod
Cc1nc2cc(Cl)c(Cl)cc2nc1C
  A: 1.2	B: -14%	C: 15%	D: 0%	E: 7	F: -5	G: -1.5%

Cc1cccc(NC(=O)C2CCCN2S(=O)(=O)c2ccc(Cl)cc2)n1 (stereo unspecified)
  A: .	B: -2%[15.4 µM]	C: 5%	D: -1%	E: -9	F: -8	G: .

O=C(COc1ccc(Cl)cc1Cl)NC(=O)c1ccccc1
  A: .	B: 27%	C: 16%	D: 13%	E: -13	F: -46	G: 0.6%

CCOC(=O)NC(=O)COC(=O)c1ccc(Sc2ncn[nH]2)c([N+](=O)[O-])c1
  A: -0.9	B: 20%[15.4 µM]	C: 0%	D: -31%	E: -14	F: 11	G: 16µM*

Cc1ccc2oc(=O)c3cnn(CC(=O)Nc4cc(-c5cccc(F)c5)no4)c3c2c1
  A: -3.2	B: -19%	C: 1%	D: 2%	E: 2	F: -9	G: -0.1%

Cc1c(Cl)cccc1NC(=S)N1CCN(S(=O)(=O)c2cccs2)CC1
  A: 0.2	B: 3%[15.4 µM]	C: 4%	D: 2%	E: -3	F: -2	G: -1.4%

N#CCC(=O)Nc1ccc(C(=O)OCC(=O)N2CCN(C(=O)c3ccco3)CC2)cc1
  A: .	B: -31%[inhibitor]	C: .	D: 1%	E: -11	F: .	G: -1.6%

COc1ccc(-c2nc(C)ncc2-c2ccc(Cl)cc2)c(O)c1
  A: 9.0	B: 6%	C: 1%	D: -23%	E: -1	F: -21	G: -2.0%

CN(CC(=O)Nc1cccc(F)c1)C(=O)/C=C/c1cc(Br)ccc1OC(F)F
  A: .	B: 11%[15.4 µM]	C: .	D: -2%	E: -38	F: -25	G: -6.7%

CC1CCCC2(C1)NC(=S)N(c1ccccc1)N2 (stereo unspecified)
  A: 2.6	B: 0%	C: 50µM*	D: 7%	E: 0	F: -5	G: -1.1%

O=C(CC1C(=O)NCCN1CC(c1ccccc1)c1ccccc1)NCC1CCOCC1 (stereo unspecified)
  A: .	B: -3%[15.4 µM]	C: -5%	D: 6%	E: -18	F: 3	G: -5.9%

Cc1ccc(OCCC(=O)NNC(=O)c2ccccc2F)cc1
  A: .	B: -37%[inhibitor]	C: .	D: 5%	E: 4	F: -6	G: -1.4%

CCOC(=O)N1CCN(C(=O)c2cc3cc(C)ccc3[nH]2)CC1
  A: -7.5	B: ?	C: 11%	D: 10%	E: -3	F: -13	G: -12%

CCn1c(=O)c(C2=NS(=O)(=O)c3ccccc3N2)c(O)c2ccccc21
  A: 0.0	B: .	C: -14%	D: .	E: .	F: 8	G: .

# Compound profiles, as listed above.
# Cc1ccc2oc(=O)c3cnn(CC(=O)Nc4cc(-c5cccc(F)c5)no4)c3c2c1 across the screens: Menin-MLL FL inh = -3.2; gsp ag = -19%; Sfp inh = 1%; gsp antagonist = 2%; D2 PAM = 2; TRPV1 PAM = -9; ClpP mod = -0.1%
# CCn1c(=O)c(C2=NS(=O)(=O)c3ccccc3N2)c(O)c2ccccc21 across the screens: Menin-MLL FL inh = 0.0; gsp ag = .; Sfp inh = -14%; gsp antagonist = .; D2 PAM = .; TRPV1 PAM = 8; ClpP mod = .

# Outcome played no part in choosing rows; about 5.1% have a hit in one of these screens.
